Screening results from PubChem BioAssay.
RGS4-Gao reg: modulators of RGS4 binding to Galphao, primary screen, biochemical, multiplexed bead flow cytometry. actives lie on both sides. binding response (% of control), % at 10 µM. hit rate 0.33% among 220,000; in the data active = binding response below about 49% or above about 150%; inactive = in between;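 also: fluorescent Galphao activated with aluminum fluoride binding bead-coupled RGS4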
ABCG2 inh: ABCG2 efflux pump inhibitors, primary screen, multiplex with ABCB1, IgMXP3 cells, flow cytometry; hit rate 0.1% among 190,000; Broad substrate specificity ATP-binding cassette transporter ABCG2 (Homo sapiens), Q9UNQ0; AID 1325, 2008; JC-1 efflux; inhibition, % at 6.6 µM;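 active = inhibition above 80%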;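 also: 0% = DMSO and 100% = nicardipine control wells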
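Assay system – ABCG2 IgMXP3 and barcoded ABCB1 CCRF-Adr cell mix · Input – 3 million cells/mL in well · Reagent – JC-1 fluorescent substrate · Compound – single test compound dose, 6.6 µM final · Timing – 10 min exposure at 25 °C with rotation, no wash · Detection – flow cytometry of retained JC-1 fluorescence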
ABCB1 inh: ABCB1 efflux pump inhibitors, primary screen, cell-based, multiplex, flow cytometry, ABCG2 counter-screen; CCRF-Adr cells, JC-1 efflux; ATP-dependent translocase ABCB1 (Homo sapiens), P08183; AID 1326, 2008; hit rate 0.067% among 190,000; inhibition, % at 6.6 µM; in the data active = inhibition above about 40%;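 also: 0% = vehicle and 100% = reference inhibitor; higher value means more JC-1 retained so stronger ABCB1 efflux block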
Target sequence (P08183 whole entry, looked up): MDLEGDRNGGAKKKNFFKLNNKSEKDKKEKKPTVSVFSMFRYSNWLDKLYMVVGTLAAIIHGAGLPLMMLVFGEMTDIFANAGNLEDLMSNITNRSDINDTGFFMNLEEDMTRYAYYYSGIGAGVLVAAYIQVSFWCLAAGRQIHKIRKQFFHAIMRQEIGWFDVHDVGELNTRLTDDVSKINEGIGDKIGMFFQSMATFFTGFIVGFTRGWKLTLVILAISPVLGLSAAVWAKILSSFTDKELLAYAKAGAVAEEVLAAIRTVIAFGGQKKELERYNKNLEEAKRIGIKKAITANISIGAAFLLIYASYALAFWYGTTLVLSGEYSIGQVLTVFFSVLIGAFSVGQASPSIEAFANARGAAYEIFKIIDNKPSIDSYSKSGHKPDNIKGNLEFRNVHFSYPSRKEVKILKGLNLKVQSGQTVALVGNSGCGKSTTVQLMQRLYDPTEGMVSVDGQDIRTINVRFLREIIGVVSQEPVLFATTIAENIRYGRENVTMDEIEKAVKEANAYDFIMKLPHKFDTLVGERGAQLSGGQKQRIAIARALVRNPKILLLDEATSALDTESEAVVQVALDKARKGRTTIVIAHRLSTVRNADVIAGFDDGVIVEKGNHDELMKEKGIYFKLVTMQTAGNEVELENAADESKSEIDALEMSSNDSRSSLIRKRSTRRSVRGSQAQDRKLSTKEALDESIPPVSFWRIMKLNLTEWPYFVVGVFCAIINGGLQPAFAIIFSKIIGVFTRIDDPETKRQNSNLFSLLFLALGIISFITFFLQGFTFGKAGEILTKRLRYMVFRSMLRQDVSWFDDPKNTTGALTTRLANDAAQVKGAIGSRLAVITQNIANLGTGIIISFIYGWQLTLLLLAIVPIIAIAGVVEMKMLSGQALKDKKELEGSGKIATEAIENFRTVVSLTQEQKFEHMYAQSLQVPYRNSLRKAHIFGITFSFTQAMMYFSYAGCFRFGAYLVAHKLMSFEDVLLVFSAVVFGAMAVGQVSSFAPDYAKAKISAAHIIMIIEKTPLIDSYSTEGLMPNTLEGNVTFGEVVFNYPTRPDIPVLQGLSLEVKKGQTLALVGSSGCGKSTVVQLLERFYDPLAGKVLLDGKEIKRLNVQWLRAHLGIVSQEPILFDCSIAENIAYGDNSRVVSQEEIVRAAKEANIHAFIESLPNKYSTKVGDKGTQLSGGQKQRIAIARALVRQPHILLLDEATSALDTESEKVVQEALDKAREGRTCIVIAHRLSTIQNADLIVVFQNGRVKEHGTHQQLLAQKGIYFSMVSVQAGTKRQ
RGS7-Gao: RGS7-Galphao binding modulators, primary screen, biochemical, multiplexed bead flow cytometry | Guanine nucleotide-binding protein G(o) subunit alpha (Homo sapiens), P09471 | actives lie on both sides | binding response (% of control), % at 10 µM | hit rate 0.35% among 220,000 | AID 1439, 2008; in the data active = binding response below about 49% or above about 150%; inconclusive = no clear call, values can overlap the other calls; inactive = in between;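 also: fluorescent Galphao held in activated GDP-AlF4 state binding bead-coupled RGS7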
RGS8-Gao: RGS8-Galphao binding modulators, primary screen, biochemical, multiplexed bead flow cytometry; AID 1423, 2008; Guanine nucleotide-binding protein G(o) subunit alpha (Homo sapiens), P09471; hit rate 0.34% among 220,000; response (percent of control binding), % at 10 µM; actives lie on both sides; in the data active = response below about 60% or above about 140%; inactive = in between;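 also: Galphao activated as the GDP aluminium fluoride complex binding bead-coupled RGS8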
The depositor's hits bear a star; ? = inconclusive; & = joins results of further samples. This is a subset (hit frequency here may not be typical).

A first look, seven compounds:
SMILES	RGS4-Gao reg	ABCG2 inh	ABCB1 inh	RGS7-Gao	RGS8-Gao
CCSc1nc(N)c(C#N)c(-c2ccccc2Cl)c1C#N	105	1	0.1	103	102
CCOc1cccc2sc(Nc3nc4ccc(NC(C)=O)cc4s3)nc12	106	-13	-1.3	102	105
c1ccc2c(c1)CCCN2Cc1nnnn1C1CCCC1	99	-1	-1.7	101	101
Cc1cccc(OCC(=O)NNC(=O)CSc2ncc(C#N)c(N)n2)c1	95	0	0.1	90	95
COc1ccc(-c2cnn(C3CCS(=O)(=O)C3)c2N)cc1 (stereo not given)	98	-1	-0.1	110	100
CCNC(=S)N1CCC(NC(=O)c2ccco2)CC1	96	2	0.5	92	96
CCOC(=O)c1cc(C#N)c(N2CCOCC2)nc1-c1ccccc1	107	8	1.0	?	104

All compounds of this part, previewed entries included:
SMILES	RGS4-Gao reg	ABCG2 inh	ABCB1 inh	RGS7-Gao	RGS8-Gao
CCSc1nc(N)c(C#N)c(-c2ccccc2Cl)c1C#N	105	1	0.1	103	102
CCOc1cccc2sc(Nc3nc4ccc(NC(C)=O)cc4s3)nc12	106	-13	-1.3	102	105
c1ccc2c(c1)CCCN2Cc1nnnn1C1CCCC1	99	-1	-1.7	101	101
Cc1cccc(OCC(=O)NNC(=O)CSc2ncc(C#N)c(N)n2)c1	95	0	0.1	90	95
COc1ccc(-c2cnn(C3CCS(=O)(=O)C3)c2N)cc1 (stereo not given)	98	-1	-0.1	110	100
CCNC(=S)N1CCC(NC(=O)c2ccco2)CC1	96	2	0.5	92	96
CCOC(=O)c1cc(C#N)c(N2CCOCC2)nc1-c1ccccc1	107	8	1.0	?	104
CNc1nc(N/N=C/c2ccc([N+](=O)[O-])cc2)nc(Nc2ccccc2)n1	100	-1	-0.6	98	84
CS(=O)(=O)N1CCc2cc(C(=O)OCC(=O)c3ccccc3)ccc21	100	2	0.7	99	102
CCC(NS(=O)(=O)c1c(C)[nH]c(=O)[nH]c1=O)C12CC3CC(CC(C3)C1)C2 (stereo not given)	92	1	0.3	93	96
CC(=O)c1ccc(NC(=O)CSc2nnc(-c3ccoc3C)n2Cc2ccccc2)cc1	108	2	1.3	106	103
COC(=O)c1sc(N2C(=O)c3oc4ccccc4c(=O)c3C2c2cccs2)nc1C (stereo not given)	103	1	0.5	94	106
CCOc1ccc(NC(=O)c2cnsn2)cc1	98	1	0.2	98	101
COc1ccc(NC(=O)CC2C(=O)N(Cc3ccco3)C(=S)N2C(C)C)cc1 (stereo not given)	103	1	0.3	107	104
CCOc1ccc(N/C(SCc2cccc([N+](=O)[O-])c2)=C(/C#N)C(N)=O)cc1	98	9	1.9	105	98
COc1cccc(OCC(=O)NNC(=O)c2ccc(-c3ccccc3)cc2)c1	96	0	-0.2	102	102
COC(=O)Nc1ccc2c(c1)N(C(=O)CCN1CCN3CCCC3C1)c1ccccc1CC2 (stereo not given)	54&102	-1&4	-0.1&1.8	59&104	71&105
Fc1ccccc1Cn1nnc2c(NCc3ccccn3)ncnc21	98	4	-0.3	97	99
O=C(Nc1ccc2oc(=O)ccc2c1)c1ccco1	92	8	0.3	101	99
Cn1c(NCc2ccco2)nc2c1c(=O)n(Cc1ccc(Cl)c(Cl)c1)c(=O)n2C	95	3	0.8	93	96
CCOCC(=O)Nc1cc(C(=O)Nc2ccc(F)cc2)ccc1Cl	95	6	0.7	96	96
Cc1ccc(CNC(=O)CCc2ccc(S(=O)(=O)NC3CCCCC3)cc2)cc1	92	1	0.9	89	86
Nc1c(C(=O)Nc2ccccc2)sc2nc(-c3ccco3)ccc12	94	-1	-0.1	88	90
N#Cc1cn(CC(=O)N2CCCC2)c2ccccc12	98	1	0.1	101	99
CSc1ccc(-c2nc(CN(C)C3CCOC3)c(C)o2)cc1 (stereo not given)	105	9	6.7	106	105

(cont.)
SMILES	RGS4-Gao reg	ABCG2 inh	ABCB1 inh	RGS7-Gao	RGS8-Gao
CC1=C(C(=O)OCc2ccccc2)C(c2cccnc2)n2nnnc2N1 (stereo not given)	98	10	1.0	101	100
CCOC(=O)c1cc(C#N)c(N2CCN(C)CC2)nc1-c1ccccc1	102	5	1.2	98	103
CCCN1C(=O)c2cc(C(=O)O)ccc2C1O (stereo not given)	98	1	0.1	100	102
COc1ccc(CNC(=O)C2COc3ccccc3O2)cc1 (stereo not given)	102	1	-0.1	105	102
Cc1ccc(OCCn2c(C3CC(=O)N(Cc4ccccc4)C3)nc3ccccc32)cc1 (stereo not given)	98	-2	-1.5	99	96
C/C(=N\NC(=O)c1ccc(NS(=O)(=O)c2cccs2)cc1)c1ccc2ccccc2c1	100	-3	-0.4	96	100
C=CCn1c(COc2ccc(Cl)cc2)nnc1SCC(=O)Nc1ccc(S(N)(=O)=O)cc1	100	20	0.3	99	85
CCc1cc2c(N[C@@H](C)C(=O)O)ncnc2s1	96	3	1.4	99	98
N#CC(c1ccccc1)(c1ncc(C(F)(F)F)cc1Cl)N1CCOCC1 (stereo not given)	92	4	1.5	96	97
Cc1c(/C=N/NC(=O)c2ccccc2O)c2ccccn2c1C(=O)c1ccc(F)cc1	96	-9	-0.9	98	98
O=c1[nH]c(/C=C/c2cccc3ccccc23)nc2ccccc12	107	2	0.7	106	109
COc1ccc(N=Cc2nc(-c3ccco3)oc2O)cc1	100	1	0.0	98	106
N/C(=N\OC(=O)c1ccco1)c1cccc(Br)c1	102	1	0.0	103	101
O=c1cc(O)c2sc3nc(-c4ccccc4)cc(C(F)(F)F)c3c2[nH]1	99	0	0.4	91	100
O=C1CC(c2ccc(Cl)cc2)CC(=O)C1CS(=O)(=O)c1ccccc1 (stereo not given)	84	-2	-0.8	86	75
Cc1cc(-c2[nH]nc3c2C(c2cccc(O)c2)C(C#N)=C(N)O3)c(C)s1 (stereo not given)	100	12	-0.4	103	99
CC(C)CNC(=O)C1CCN(c2ccc(S(=O)(=O)N3CCOCC3)cc2Cl)CC1	99	9	-0.5	104	101
COC(=O)N/N=C/c1c(C)c(C(=O)c2ccc(F)cc2)n2ccccc12	100	8	1.7	103	103
COc1ccccc1NC(=O)N(Cc1ccccc1)C1=NCC(C)S1 (stereo not given)	99	2	0.3	94	100
CN(C)c1oc(-c2ccccc2)nc1C#N	98	1	0.5	99	101
Cc1cc(C(F)F)n2ncc(C(=O)NCc3ccccc3C(F)(F)F)c2n1	110	-1	-1.8	105	103
CCCN(CCO)Cc1cccc(Cl)c1	96	3	1.0	102	100
Cc1cc(CSc2ccccc2)ccc1NC(=O)c1ccc(Br)cc1	102	0	0.6	101	99
CC(c1ccccc1)C1CC(=O)N(CC(=O)O)C1=O (stereo not given)	105	-1	-0.3	105	103
COC(=O)CNC(=O)COC(=O)c1cc(F)c(F)cc1Cl	99	5	0.2	99	101

(continued)
SMILES	RGS4-Gao reg	ABCG2 inh	ABCB1 inh	RGS7-Gao	RGS8-Gao
O=C(NCc1ccco1)C1(S(=O)(=O)c2ccc(Cl)cc2)CC1	98	4	0.7	100	100
CCCCn1ccc(=O)c2c(C(F)(F)F)nccc21	89	5	0.3	97	94
CCOC(=O)c1c(-c2ccccc2)nnn1-c1nc(OCC)nc(N2CCCCC2)n1	91	4	1.1	92	91
O=C(Nc1ccc(F)cc1)Nc1nnc(-c2ccncc2)s1	105	0	-0.1	104	109
CCn1c(Cc2ccccc2)nnc1SCC(=O)Nc1ccccc1	105	4	0.6	96	103
COc1cc(/C=C2\SC(=N)N(c3ccc4c(c3)OCO4)C2=O)cc(OC)c1O	102	-15	-3.8	101	98
C/C(CC(=O)NC1CCCCC1)=N\NC(=O)COc1ccc(C)cc1Br	81	2	1.2	60	84
Cc1nc(SCC(=O)Nc2c(C)nn(C)c2C)c2cnn(-c3ccccc3)c2n1	100	2	0.3	102	103
CCCCN(C(=O)Nc1ccc(Cl)cc1)C1CCN(C(C)=O)CC1	100	22	-0.2	101	101
COc1ccc(/C=C2\N=C(C)N(c3ccc(C(=O)O)cc3)C2=O)cc1OC	69	-5	-1.1	60	83
Nc1cccc(-c2nc3cc(S(=O)(=O)c4ccc5oc(-c6cccc(N)c6)nc5c4)ccc3o2)c1	100	-1	-0.6	104	103
N#C/C(=C\c1ccc(-c2ccccc2[N+](=O)[O-])o1)C(=O)Nc1nc(-c2cccs2)cs1	101	-11	-1.4	100	100
CCOc1ccc(Cn2c3ccc(OC)cc3c3nc4ccccc4nc32)cc1	102	14	2.8	102	102
Cc1cccc(C(=O)Nc2ccc(C)c(OC(=O)c3cccc(C)c3)c2)c1	99	1	-0.2	97	98
COc1ccc(/C=C2\SC(=O)N(CCC(=O)Nc3ccccc3)C2=O)cc1OC	91	8	0.0	102	95
Cn1c(C(=O)NCCC2=CCCCC2)cc2c(=O)n3ccccc3nc21	102	1	0.1	99	102
COc1nc(Nc2ccc3c(c2)OCO3)nc(OC)n1	101	4	0.3	101	102
CC1CC(C)CN(C(=O)CSc2nc(Cc3cccs3)nc3ccccc23)C1 (stereo not given)	103	1	1.2	102	102
Cc1ccc(Nc2nc(N)nc(CSc3nccn3C)n2)cc1	105	4	0.7	108	103
COc1ccc(Cn2c3ccc(OC)cc3c3nc4ccccc4nc32)cc1	106	0	0.5	106	102
CC(NS(=O)(=O)c1ccc([N+](=O)[O-])cc1)C(=O)NN (stereo not given)	98	3	1.7	95	99
O=C1c2cccnc2C(O)N1Cc1cccs1 (stereo not given)	102	-5	-2.4	99	100
COC(=O)c1ccc(OC(=O)c2nn(C)cc2Cl)c(OC)c1	99	39	0.3	96	101
CCN(CC)c1ccc(C(=O)OCc2cc(=O)oc3cc(O)ccc23)cc1	101	-1	-0.3	102	105
COc1ccc(C2NC(c3ccc(OC)c(OC)c3OC)C(C)C(=O)C2C)c(OC)c1OC (stereo not given)	101	9	4.2	100	105

New compounds follow
SMILES	RGS4-Gao reg	ABCG2 inh	ABCB1 inh	RGS7-Gao	RGS8-Gao
CCc1cc(C(c2ccc(OC)c(OC)c2)N2CCOCC2)c(NC(=O)c2ccccc2)s1 (stereo not given)	103	0	-0.1	99	103
CC(C)(C)NC(=O)CSc1nc(O)cc(=O)[nH]1	99	-2	0.0	100	94
O=C(CC1C(=O)N(c2ccccc2)C(=O)N1Cc1ccco1)Nc1ccccc1 (stereo not given)	86	1	0.2	82	75
c1cc2ccc3ccc(-n4cnnn4)c4ccc(c1)c2c34	94	4	0.6	98	99
CCN(CC)CCNC(=O)c1nn(-c2ccc(C)cc2)c(=O)c2c1c1ccccc1n2C	99	9	7.7	99	101
CCCCCCNCc1ccc(Br)cc1	103	-1	0.2	102	101
COc1ccc(NC(C)=O)cc1NC(C)C(=O)Nc1cccc2ccccc12 (stereo not given)	99	2	0.5	93	100
COc1ccc(/C(C)=N\Nc2nc(-c3ccc(Cl)cc3)cc(C(F)(F)F)n2)cc1OC	97	0	-0.1	100	99
CCOc1ccc(NC(=O)CC2C(=O)N(C)C(=S)N2Cc2ccco2)cc1 (stereo not given)	99	8	1.6	96	100
CN1c2ccccc2Oc2c(c(=O)n(C)c(=O)n2C)C1c1cccc([N+](=O)[O-])c1 (stereo not given)	107	11	4.1	108	104
CCC(C)n1c(-c2ccco2)nc2nc3ccccc3nc21 (stereo not given)	92	6	0.7	97	107
Cc1cc(C)nc(Nc2ncc(O)n2-c2ccc(Br)cc2)n1	102	34	1.3	98	100
CCOC(=O)c1cc(C#N)c(Oc2ccc(F)cc2)nc1-c1ccccc1	99	2	0.2	96	100
CC1=C(C(=O)Nc2ccccc2)C(c2ccncc2)n2nnnc2N1 (stereo not given)	100	2	0.5	100	103
COC(=O)Cn1c2ccc(OC)cc2c2nc3ccccc3nc21	100	6	1.4	99	102
COc1ccc(/C=c2\sc3nc(-c4ccccc4OC)nn3c2=O)c(OC)c1	96	-3	-0.6	89	103
COc1cccc(NC(=O)CSc2nc3ccccc3c3nc4ccccc4n23)c1	102	2	1.4	102	106
Cc1ccccc1NC(=O)C1CC(Cl)=CCC1C(=O)O (stereo not given)	105	-1	0.4	106	109

In a second layout: two of the compounds above
The line under a structure holds: RGS4-Gao reg	ABCG2 inh	ABCB1 inh	RGS7-Gao	RGS8-Gao
Cc1cc(C)nc(Nc2ncc(O)n2-c2ccc(Br)cc2)n1
→ 102	34	1.3	98	100
CCOC(=O)c1cc(C#N)c(Oc2ccc(F)cc2)nc1-c1ccccc1
→ 99	2	0.2	96	100
